Mtb growth: Mycobacterium tuberculosis H37Rv growth inhibition, putative kinase inhibitor library, confirmatory dose response (AID 2842) | M. tuberculosis H37Rv growth inhibition; higher % means a stronger effect; some inactives read as strong as hits | inhibition, % at 10 µg/mL, or IC90 in µg/mL where a hit was titrated | 5.2% of 24,000 active;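 active = confirmed in a dose series; inconclusive = mostly over 85% at the one dose but not retested; inactive = below 85% or not confirmed; about a fifth of its hits are not listed in these tables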;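 note: bacteria incubated one week before Alamar blue readout; 0% = bacteria only wells and 100% = bacteria with high antibiotic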
* marks the source's active call; other numbers are inactive results; ? = inconclusive. An excerpt (hit frequency here may not be typical).

A first look:
| structure | Mtb growth |
| --- | --- |
| O=C(Nc1c(C(=O)Nc2ccccc2)oc2ccccc12)c1ccccc1Cl | 14% |
| O=C(Cn1cnc2c(nnn2-c2cccc(F)c2)c1=O)Nc1ccc2c(c1)OCCO2 | 6% |

The whole of this part, repeating the preview:
| structure | Mtb growth |
| --- | --- |
| O=C(Nc1c(C(=O)Nc2ccccc2)oc2ccccc12)c1ccccc1Cl | 14% |
| O=C(Cn1cnc2c(nnn2-c2cccc(F)c2)c1=O)Nc1ccc2c(c1)OCCO2 | 6% |
| CSC1=C(C#N)C(c2ccncc2)C(C(=O)Nc2ccccc2)=C(C)N1 (stereo unspecified) | -3% |
| Cc1ccc(N2CC(NC(=O)c3ccc([N+](=O)[O-])cc3)CC2=O)cc1C (stereo unspecified) | -10% |
| COc1ccc2cc(CCNC(=O)C34CC5CC(CC(C5)C3)C4)c(=O)[nH]c2c1 | 3% |
| CSc1nc2c([nH]c3ccccc32)c(=O)n1C | 7% |
| Cc1ccc(C)c2[nH]c(=O)c(CCNC(=O)c3ccco3)cc12 | -8% |
| Nc1c(-c2nc(-c3cccnc3)no2)nnn1-c1cccc(C(F)(F)F)c1 | 2% |
| N#Cc1c(NC(=O)c2ccc(C(=O)Nc3sc4c(c3C#N)CCCC4)s2)sc2c1CCCC2 | -2% |
| COc1ccc(C(=O)Nc2nnc(-c3cc(C)ccc3C)o2)cc1OC | 46% |
| Cc1cccc(Cn2c(NC(C)c3ccccc3)nc3c2c(=O)[nH]c(=O)n3C)c1 (stereo unspecified) | 7% |
| N#CC1=C(SCc2ccccc2)NC(=O)C(C#N)C1c1ccccc1Cl (stereo unspecified) | -12% |

| structure | Mtb growth |
| --- | --- |
| CCOC(=O)c1nn(-c2ccc(C)cc2)c(=O)c2c(NC(=O)c3ccccc3OCC)scc12 | -7% |
| Cc1ccc(CNC(=O)CN2C(=O)C3(SCC(=O)N3c3cc(C)cc(C)c3)c3ccccc32)cc1 (stereo unspecified) | 11% |
| Cn1c(=O)c2c(SCC(=O)NCc3ccc(F)cc3)nc(-c3ccc(F)cc3)nc2n(C)c1=O | -1% |
| CCOC(=O)c1nn(-c2ccccc2)c(=O)c2c(NC(=O)COc3ccc(Cl)cc3)scc12 | -9% |
| O=C(NCc1ccccc1)c1ccc(Cn2c(=O)[nH]c3ccsc3c2=O)cc1 | 1% |
| Cc1ccc(-c2nnc(NC(=O)c3ccc(Cl)cc3Cl)o2)c(C)c1 | 4.1µg/mL* |
| O=C(Cn1cnc2c(nnn2-c2cccc(F)c2)c1=O)N1CCN(c2ccccc2)CC1 | -10% |
| CCSc1ccccc1C(=O)Nc1sc2c(c1C(N)=O)CCC(C)C2 (stereo unspecified) | -2% |
| CCSCCOC(=O)C1=C(C)NC(=O)NC1c1ccccc1Br (stereo unspecified) | 12% |
| COc1ccccc1NC(=O)c1oc2ccccc2c1NC(=O)CCC1CCCC1 | 2% |
| Cc1c(C(=O)Nc2nnc(-c3ccc(Br)cc3)s2)cccc1[N+](=O)[O-] | 6% |
| CC(=O)Nc1ccc(NC(=O)CSc2ccc3nnc(-c4ccc(Cl)cc4)n3n2)cc1 | 3% |

| structure | Mtb growth |
| --- | --- |
| Cc1ccc2cc(C3CC(c4ccc(Br)cc4)=NN3C(=O)CCC(=O)O)c(=O)[nH]c2c1 (stereo unspecified) | -3% |
| O=C1CC(NS(=O)(=O)c2ccccc2)CN1c1ccc(F)cc1 (stereo unspecified) | 4% |
| NC(=O)c1nc(-c2cccc(Br)c2)nc2c1[nH]c(=O)n2-c1ccccc1F | -3% |
| Cc1ccc(C)c2[nH]c(=O)c(CCNC(=S)NC3CCCCC3)cc12 | 55% |
| CC1CCCCN1S(=O)(=O)c1ccc(C(=O)Nc2ccc(O)c(-c3nc4ccccc4s3)c2)cc1 (stereo unspecified) | 6% |
| COc1ccc(N2C(=O)C(Cl)=C(Nc3ccc(S(N)(=O)=O)cc3)C2=O)cc1 | -7% |
| CCOC(=O)N1CCN(C(=O)COc2cccc3c2CCN(CC)C3=O)CC1 | -2% |
| COc1ccc(-c2nc(SCC(=O)Nc3ccc(C(C)=O)cc3)c3c(=O)n(C)c(=O)n(C)c3n2)cc1 | -1% |
| O=C(NC(Oc1ccccc1)C(Cl)(Cl)Cl)c1cccnc1 (stereo unspecified) | -9% |
| O=C(CSc1ncnc2c1nnn2Cc1ccccc1F)Nc1ccccc1F | 7% |
| Cc1ccc(C(=O)Nc2cccc(-c3ccc(N4CCOCC4)nn3)c2)cc1[N+](=O)[O-] | -14% |
| O=C(NNc1ncnc2c1cnn2-c1cccc(Cl)c1)c1ccco1 | ? |

| structure | Mtb growth |
| --- | --- |
| CC(=O)c1ccc(NC(=O)CSc2ncnc3c2cnn3-c2ccc(Cl)cc2)cc1 | -6% |
| COc1ccc(-n2c(=O)[nH]cc(C(=O)Nc3ccc(C(C)=O)cc3)c2=O)cc1OC | -6% |
| O=C(Nc1c(C(=O)Nc2ccc([N+](=O)[O-])cc2)oc2ccccc12)c1ccc(Br)cc1 | 5% |
| CCS(=O)(=O)c1cccc(C(=O)Nc2sc3c(c2C#N)CCN(Cc2ccccc2)C3)c1 | 6% |
| Cc1ccccc1Nc1nc(-c2cccnc2)nc2ccccc12 | 7.3µg/mL* |
| CCSc1nnc(NC(=O)CSc2nc3c(c(=O)n2C)SC(C)C3)s1 (stereo unspecified) | -5% |
| O=C(O)c1ccccc1C(=O)c1ccc2c3c(cccc13)CC2 | 3% |
| COc1ccccc1C(c1sc2nc(C)nn2c1O)N1CCC(C(N)=O)CC1 (stereo unspecified) | -1% |
| CCOC(=O)c1nn(-c2ccc(C(F)(F)F)cc2)c(=O)c2c(NC(=O)c3ccc([N+](=O)[O-])cc3)scc12 | -1% |
| Cc1[nH]c2ccc(Oc3ccccc3)cc2c(=O)c1CN1CCOCC1 | 2% |
| CC1CCc2sc(NC(=O)Cc3cccc4ccccc34)c(C(N)=O)c2C1 (stereo unspecified) | -1% |
| N#Cc1ccc(-c2csc(NC(=O)c3ccccc3[N+](=O)[O-])n2)cc1 | 2% |

Reprinted at random: six records from the list
| structure | Mtb growth |
| --- | --- |
| CCOC(=O)c1nn(-c2ccc(C(F)(F)F)cc2)c(=O)c2c(NC(=O)c3ccc([N+](=O)[O-])cc3)scc12 | -1% |
| CCS(=O)(=O)c1cccc(C(=O)Nc2sc3c(c2C#N)CCN(Cc2ccccc2)C3)c1 | 6% |
| CC1CCc2sc(NC(=O)Cc3cccc4ccccc34)c(C(N)=O)c2C1 (stereo unspecified) | -1% |
| CCSc1nnc(NC(=O)CSc2nc3c(c(=O)n2C)SC(C)C3)s1 (stereo unspecified) | -5% |
| COc1ccc(-n2c(=O)[nH]cc(C(=O)Nc3ccc(C(C)=O)cc3)c2=O)cc1OC | -6% |
| CC(=O)c1ccc(NC(=O)CSc2ncnc3c2cnn3-c2ccc(Cl)cc2)cc1 | -6% |

(cont.)
| structure | Mtb growth |
| --- | --- |
| Cc1ccc2cc(CCNC(=O)c3ccc(Cl)cc3)c(=O)[nH]c2c1 | -2% |
| O=C(NCc1ccccn1)NC1CC(=O)N(c2ccc(F)cc2)C1 (stereo unspecified) | 1% |
| Cc1ccc2nc(NNC(=O)c3nc4ccccc4s3)sc2c1 | 6.7µg/mL* |
| Cc1ccccc1Cn1c(N2CCN(C)CC2)nc2c1c(=O)[nH]c(=O)n2C | 3% |
| N#Cc1cc2c(nc1SCC(=O)Nc1nccs1)CCCCC2 | -1% |
| O=C(CSc1ccc2nnc(-c3cccnc3)n2n1)Nc1cccc(F)c1 | 20% |
| O=c1c(-c2ccccn2)coc2cc(O)cc(O)c12 | 11% |
| Cc1ccc(C)c2[nH]c(=O)c(CCNC(=O)c3ccc(Cl)cc3)cc12 | -10% |
| O=C(CSc1nnc(CNC(=O)c2ccc(F)cc2)o1)NCc1ccco1 | -2% |
| COc1ccc2c(c1)c(=O)c(C(=O)c1ccc(F)cc1)cn2Cc1ccccc1F | 0% |
| Cc1ccc(N(c2ncnc(N)c2[N+](=O)[O-])C2CCCCC2)cc1 | -20% |
| COC(=O)c1ccc(CSc2ncc(CO)n2Cc2ccc(F)cc2)o1 | 5% |

| structure | Mtb growth |
| --- | --- |
| CC1=C(C(=O)Nc2ccccc2C)C(c2cccc(Br)c2)NC(=O)N1 (stereo unspecified) | -3% |
| CNC(=S)NCCc1cc2ccc(OC)cc2[nH]c1=O | -8% |
| O=C(Nc1c(C(=O)Nc2ccc3c(c2)OCO3)oc2ccccc12)c1cccc([N+](=O)[O-])c1 | 11% |
| Cc1cccc(NC(=O)CSc2nc(N)c(NC(=O)c3ccccc3)c(=O)[nH]2)c1 | -5% |
| CC(C)(C)C(=O)N(Cc1ccccc1)c1nnc(C23CC4CC(CC(C4)C2)C3)s1 | 0% |
| Cc1nnc(SCc2ccc([N+](=O)[O-])cc2)n(N)c1=O | 1% |
| CC(=O)N1CCc2c(sc(NC(=O)c3cccs3)c2C(N)=O)C1 | 3.2µg/mL* |
| O=C(CC(NCc1cccnc1)C(=O)O)Nc1ccccc1F (stereo unspecified) | -13% |
| O=C(Nc1nnc(-c2cc(Cl)ccc2Cl)o1)c1c(F)cccc1F | 3.5µg/mL* |
| O=C(NC(=S)Nc1ccc(S(=O)(=O)N2CCOCC2)cc1)c1sc2ccccc2c1Cl | -2% |
| CC(=O)c1ccc(N2C(=O)CC(Nc3ccc(N4CCCCC4)cc3)C2=O)cc1 (stereo unspecified) | -9% |
| O=C(Nc1ccccc1-c1nc2ccccc2s1)c1cc(=O)c2ccccc2o1 | -4% |

| structure | Mtb growth |
| --- | --- |
| CC1CN(c2ccc(Oc3ccccc3)cc2)c2nc3c(c(=O)n(CC(N)=O)c(=O)n3C)n2C1 (stereo unspecified) | 8% |
| CCOC(=O)C1=C(C)Nc2[nH]c(=O)[nH]c(=O)c2C1c1ccccc1Cl (stereo unspecified) | -3% |
| Cn1c(=O)[nH]c(=O)c2c1nc(SCCN1CCCCC1)n2Cc1ccccc1 | 2% |
| Cc1ccc(C)c2[nH]c(=O)c(CCNC(=O)COc3ccc(Cl)cc3Cl)cc12 | -7% |
| O=c1cnnc(N/N=C/C=C/c2ccccc2)[nH]1 | 1% |
| CCOc1ccccc1NC(=O)c1oc2ccccc2c1NC(=O)CCc1ccc(OC)cc1 | -5% |
| Nc1nc(SCc2cccc3ccccc23)n[nH]1 | 1% |
| COc1ccc(C(c2sc3nc(C)nn3c2O)N2CCN(C(=O)c3ccco3)CC2)cc1OC (stereo unspecified) | -8% |
| CN1C(=O)c2cccc(NC(=O)/C=C/c3ccccc3)c2C1=O | -5% |
| CCNc1nc2c(c(=O)n(C)c(=O)n2C)n1CC(O)COc1ccc(OC)cc1 (stereo unspecified) | -8% |
| Cc1nc2sc(C(c3cccc(F)c3)N3CCOCC3)c(O)n2n1 (stereo unspecified) | 2% |
| COc1ccc(-n2c(=O)[nH]c3c(C(N)=O)nc(C4CCCCC4)nc32)c(OC)c1 | ? |

| structure | Mtb growth |
| --- | --- |
| COC(=O)c1ccc(NS(=O)(=O)c2cc3c4c(c2)C(C)C(=O)N4CCC3)cc1 (stereo unspecified) | -5% |
| CC1CCCN(S(=O)(=O)c2ccc3[nH]c(=O)cc(C(=O)NCc4ccco4)c3c2)C1 (stereo unspecified) | -4% |
| COCCCNC(=O)c1c(N)n(/N=C/c2ccc(O)c(O)c2)c2nc3ccccc3nc12 | 1% |
| Cc1ccccc1-c1nnc(NC(=O)c2ccc(Cl)cc2Cl)s1 | -1% |
| COc1cccc(NC(=O)CSc2nnc(Cc3ccc(Cl)cc3)n2-n2cccc2)c1 | 2% |
| O=C(Nc1c(C(=O)Nc2ccccc2F)oc2ccccc12)c1ccc(Cl)cc1 | -3% |
| Cc1c(OCC(=O)c2ccccc2)ccc2c3c(c(=O)oc12)CCC3 | 1% |
| Cn1c(Cn2c(=O)sc3ccccc32)nnc1SCC(=O)N1CCc2ccccc21 | 1% |
| Cc1ccc(Nc2ncnc(N)c2[N+](=O)[O-])cc1C | 8% |
| CCOC(=O)C1=C(C)NC(=O)NC1c1ccc(N(C)C)cc1 (stereo unspecified) | 4% |
| COC(=O)c1cc(N/C=C(\C#N)c2nc(-c3ccccc3)cs2)cc(C(=O)OC)c1 | -3% |
| O=C(Nc1nnc(C23CC4CC(CC(C4)C2)C3)s1)c1ccccc1I | 6% |

Reprinted from above for reference:
| structure | Mtb growth |
| --- | --- |
| COC(=O)c1ccc(NS(=O)(=O)c2cc3c4c(c2)C(C)C(=O)N4CCC3)cc1 (stereo unspecified) | -5% |
| CC1CCCN(S(=O)(=O)c2ccc3[nH]c(=O)cc(C(=O)NCc4ccco4)c3c2)C1 (stereo unspecified) | -4% |
| COCCCNC(=O)c1c(N)n(/N=C/c2ccc(O)c(O)c2)c2nc3ccccc3nc12 | 1% |
| Cc1ccccc1-c1nnc(NC(=O)c2ccc(Cl)cc2Cl)s1 | -1% |
| COc1cccc(NC(=O)CSc2nnc(Cc3ccc(Cl)cc3)n2-n2cccc2)c1 | 2% |
| O=C(Nc1c(C(=O)Nc2ccccc2F)oc2ccccc12)c1ccc(Cl)cc1 | -3% |
| Cc1c(OCC(=O)c2ccccc2)ccc2c3c(c(=O)oc12)CCC3 | 1% |

Screening results as filed in PubChem.
